CHT PAM: allosterically activates the human high affinity choline transporter | Q9GZV3 | CHT-expressing cells, membrane potential dye, choline EC20; stronger effect = higher value; LV-AA mutant CHT in HEK293 cells | B-score at 10 µM | 310,000 compounds, 0.49% hits;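 active = initial fluorescence not abnormally high and integrated response B-score, plate-corrected, over 3 SD above library mean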
Target sequence (Q9GZV3 whole entry, looked up): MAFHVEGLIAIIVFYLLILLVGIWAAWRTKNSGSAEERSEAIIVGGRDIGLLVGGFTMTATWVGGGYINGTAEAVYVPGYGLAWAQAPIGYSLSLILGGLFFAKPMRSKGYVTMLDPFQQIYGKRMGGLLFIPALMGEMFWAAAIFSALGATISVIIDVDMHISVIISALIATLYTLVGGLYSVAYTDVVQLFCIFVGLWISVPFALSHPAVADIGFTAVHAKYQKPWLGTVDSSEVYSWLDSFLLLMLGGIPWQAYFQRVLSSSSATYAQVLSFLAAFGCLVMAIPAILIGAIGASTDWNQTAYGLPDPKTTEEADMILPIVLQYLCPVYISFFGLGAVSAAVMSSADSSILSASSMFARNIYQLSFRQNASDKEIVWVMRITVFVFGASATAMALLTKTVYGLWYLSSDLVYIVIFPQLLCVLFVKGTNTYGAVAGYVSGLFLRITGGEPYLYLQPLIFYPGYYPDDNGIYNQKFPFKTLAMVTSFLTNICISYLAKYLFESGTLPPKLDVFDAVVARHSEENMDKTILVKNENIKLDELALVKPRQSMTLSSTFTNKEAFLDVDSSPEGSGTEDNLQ
Calls only; i = inactive. Not all compounds are listed, and most or all hits are left out here.

Structure	CHT PAM
Cc1cc(NC(=O)Cn2cc(C(F)(F)F)cc(Cl)c2=O)no1	i
Cc1oc(C(C)(C)C)cc1C(=O)Nc1ccc(C(=O)O)cc1	i
CCC1C(=O)NCCN1Cc1nc(-c2ccc(C)s2)oc1C (centres undefined)	i
O=c1c2ccccc2n(Cc2ccc(F)cc2)c(=O)n1C1CCCC1	i
Cc1ccc(-c2nnn(CC(=O)N(CC(=O)NC3CCCC3)c3ccc(F)cc3)n2)o1	i
COc1ccc(CCNC(=O)CCCCCNc2nc(=S)[nH]c3ccccc23)cc1OC	i
COc1ccc2c(c1OC)C(=O)N(c1ccccn1)C2	i
Cc1cc(C)c(C(=O)CN2C(=O)NC3(CCCCCC3)C2=O)cc1C	i
CCOC(=O)Nc1c(C(=O)OC)[nH]c2cc(OC)ccc12	i
N=C1/C(=C\c2coc3ccccc3c2=O)C(=O)N=C2SC(c3ccncc3)=NN12	i
C=CCNc1ccc(F)c(F)c1N1CCCCCC1=O	i
O=C(Nc1ccccc1)C1C2/C=C\CCCCC21 (centres undefined)	i
Brc1ccccc1-c1nnc(COc2ncnc3c2cnn3-c2ccccc2)o1	i
O=C(CSc1nnc(-c2ccc3c(c2)OCO3)n1-c1ccccc1)c1ccccc1	i
O=c1oc2c(CN3CCCCC3)c(O)ccc2c2c1CCCCC2	i
Cc1ccc(S(=O)(=O)N2CCOCC2)cc1C(=O)N(Cc1nnc(-c2ccccc2Cl)o1)C1CC1	i
COc1cc(CN2CC(=O)N(c3cc(Cl)ccc3C)C2=S)cc(OC)c1OC	i
CCCC(=O)C1=C(O)C(C(=O)OC)C(C)(C)CC1=Nc1cccc([N+](=O)[O-])c1 (centres undefined)	i
Cc1ccc(-c2nc3ccccc3[nH]2)cn1	i
COc1cccc(C(=O)NC(=S)N2c3ccccc3CC2C)c1OC (centres undefined)	i
Cc1ccc(N2C(=O)c3ccc(C(=O)O)cc3C2=O)cc1C	i
COC(=O)c1[nH]c2ccc(F)cc2c1NC(=O)C1=COCCO1	i
COc1cccc(CNC(=O)CN(C)S(=O)(=O)c2cnc[nH]2)c1	i
CCOC(=O)C(Cc1ccccc1)NC(=O)Cn1nnc(-c2ccc(SC)cc2)n1 (centres undefined)	i
Cc1ccc(C(=O)NC(=O)CSc2ncccc2C(=O)O)cc1	i

Brought forward from above: 2 entries; new compounds follow.
Structure	CHT PAM
CCOC(=O)C(Cc1ccccc1)NC(=O)Cn1nnc(-c2ccc(SC)cc2)n1 (centres undefined)	i
Cc1ccc(C(=O)NC(=O)CSc2ncccc2C(=O)O)cc1	i
O=S(=O)(NC(=NCc1ccccc1)c1ccccc1)c1ccccc1	i
CCN(CC)CCOc1ccc(/C(=C(\Cl)c2ccccc2)c2ccccc2)cc1	i
Cc1nc(NC(=S)Nc2ccccc2)sc1C	i
CC(C)Oc1ccc(-c2cc(C(=O)NCCN3CCOCC3)c3ccccc3n2)cc1	i
CCCCNC(=O)COC(=O)c1ccc(NS(=O)(=O)c2ccc3c(c2)OCCO3)cc1	i
COc1ccc(-n2c(Cc3cccn3C)nnc2SCC(=O)Nc2cc(C)cc(C)c2)cc1	i
CC(C)CC(C(=O)NC1CCCC1)N(Cc1cccs1)C(=O)c1snc(C(N)=O)c1N (centres undefined)	i
Cc1ccc(/C=N\NC(=O)Cc2cccn2C)o1	i
COC(=O)N1C(=O)[C@](c2ccc(OC)cc2)(C(C)C)N1C(=O)OC	i
O=C(CSc1nc2ccccc2n1CC(=O)N1CCCCC1)N1CCCCC1	i
COC(=O)c1cccc(OC(N)=O)c1	i
CC(C)CCNC(=O)c1c[nH]c2ccc(S(=O)(=O)N3CCOCC3)cc2c1=O	i
Cc1ccc2c(c1)[nH]c1c(=O)n(Cc3ccccn3)cnc12	i
Cc1ccc2c(c1)N(CC(=O)NCCCN1CCOCC1)C(=O)c1cccnc1O2	i
CC[C@H](C)[C@H](NC(=O)OCc1ccccc1)C(=O)OCC(=O)Nc1ccc(N2CCOCC2)cc1	i
N#C/C(=C\c1cccn1-c1ccccc1)C(=O)NC1CCCCC1	i
O=Nc1ccc(NOC(=O)c2ccccc2Br)cc1	i
COc1cccc2cc(C(=O)c3ccccc3)oc12	i
CCSc1ccc(-c2nn(-c3ccccc3)cc2/C=C(/C#N)C(=O)NCCCOC)cc1	i
COCCNS(=O)(=O)c1ccc(-c2ccc(C)cc2)cc1	i
OC(C#CCN1CCOCC1)(c1ccccc1)C1CC1 (centres undefined)	i
Cc1c(CC(=O)N2CCN(C(=O)C3COc4ccccc4O3)CC2)c(=O)oc2cc(O)c(Cl)cc12 (centres undefined)	i
CN(C)C=NC(=O)c1cc(C(=O)c2ccc(Cl)cc2)c[nH]1	i
O=C(COC(=O)C1(c2ccc(Cl)cc2)CCCC1)NCc1ccco1	i
C/C(CC(=O)Nc1cc(C)ccn1)=N\NC(=O)c1cccc(F)c1	i
Cc1cc(C)cc(NS(=O)(=O)c2ccc3oc(=O)ccc3c2)c1	i
CC12CN3CCN(CC(C3)/C1=N/N=C/c1cccc([N+](=O)[O-])c1)C2	i
O=C(COc1ccc(Cl)cc1)OCc1csc(Nc2ccccc2)n1	i
CSc1ccc(C(=O)C2CCCN(C(=O)c3ccc(C)nc3)C2)cc1 (centres undefined)	i
Cc1nc2ccccn2c1C(=O)CSc1ccc(Cl)cc1Cl	i
COc1ccc(N(C(=O)c2csnn2)C(C(=O)NC2CCCC2)c2cccs2)cc1 (centres undefined)	i
CCNC(=O)C1CC(=O)N(CC)C(=Nc2cc(Cl)c(O)c(Cl)c2)S1 (centres undefined)	i
Cc1cc(C(=O)N/N=C2\CC(=O)CC(C)(C)C2)n[nH]1	i
COc1cccc(NC(=O)C2C3CC4OC(=O)C2C4C3)c1 (centres undefined)	i
CC(C)(C)c1ccc(OCC(=O)NC2CCS(=O)(=O)C2)cc1 (centres undefined)	i
CC(C)(C)C(=O)Nc1ccc(C(=O)NNC(=O)c2ccccc2)cc1	i
CC1CN(C(=O)CCC(=O)NCc2ccccc2)c2cc(Cl)ccc2O1 (centres undefined)	i
CCOC(=O)c1nn(-c2ccccc2)c(-c2ccccc2)c1C(=O)c1ccccc1	i
S=C(NCCc1ccccc1)Nc1nccs1	i
O=S(=O)(c1ccc(Br)s1)N1CCC2(CC1)OCCO2	i
COc1cccc(C2CC(c3ccccc3C)n3nc(N)nc3N2)c1 (centres undefined)	i
CC(=O)Nc1cccc(NC(=O)CSc2ccc(C(F)(F)F)cc2[N+](=O)[O-])c1	i
O=S1(=O)CCN(Cc2ccccc2Cl)CC1	i
COc1ccccc1NC(=O)C1CCCN(C(=O)Nc2ccc(F)cc2)C1 (centres undefined)	i
CCOC(=O)CSc1nc(N)cc(=O)[nH]1	i
CCCCc1ncc(CN2CCN(Cc3ccc(C)cc3)C(CCO)C2)[nH]1 (centres undefined)	i
O=C(Nc1ccc(N2CCN(Cc3ccccc3Cl)CC2)cc1)c1cccnc1	i
CC(=O)Nc1ccccc1/C=C/c1ccc2c(C)cc(C)c(O)c2n1	i
COc1ccccc1-c1cc(C(=O)N/N=C/c2cccs2)c2ccccc2n1	i
Cn1c(=O)[nH]c(=O)c2c1nc(SCC(O)CO)n2Cc1ccccc1Cl (centres undefined)	i

The list goes on.
smiles,CHT PAM
O=C(C1CCN(S(=O)(=O)c2cccc3cccnc23)CC1)N1CCN(C2CCCCC2)CC1,i
N=c1c(S(=O)(=O)c2ccc(Cl)cc2)cc2c(=O)n3ccccc3nc2n1C1CCCCC1,i
CCC(=O)N1CCc2cc(S(=O)(=O)NCCC(=O)NCc3ccc(F)cc3)ccc21,i
O=C(CSc1nccc(=O)[nH]1)N1CCc2ccccc2C1,i
CN(C)S(=O)(=O)c1cc(C(=O)NCc2ccccc2)c(Cl)cc1Cl,i
Cc1nn2c(=O)cc(CSCC(=O)Nc3ccccc3F)nc2s1,i
CCOC(=O)C1(CC2CC2)CCN(Cc2cnc(N(C)C)s2)CC1,i
CCOC(=O)c1c(C2CC2)csc1NC(=O)COC(=O)c1cc(OC)c(OC)cc1[N+](=O)[O-],i
Cn1c(=O)c2[nH]c(CN(Cc3ccccc3)Cc3ccccc3)nc2n(C)c1=O,i
Cc1ccccc1CNC(=O)Cc1cccs1,i
CC(C)c1nnc(NC(=O)CCC(=O)Nc2ccc(Cl)cc2)s1,i
O=C(O)COc1ccccc1/C=N/NC(=O)CN1CCN(S(=O)(=O)c2ccc(Br)cc2)CC1,i
COc1cc(/C=N/n2cnnc2)ccc1OCCSc1ccc(C)cc1,i
O=C(CC1SC(N2CCCCC2)=NC1=O)Nc1cccc(C(=O)Nc2ncccc2O)c1 (centres undefined),i
O=C(Cn1c(NCCO)nc2ccccc21)NCCc1ccc(F)cc1,i
Cc1ccc(OCC(=O)N/N=C/c2cccn2C)cc1,i
O=C(NCCc1c[nH]c2ccccc12)Nc1ccccc1,i
CCCCOc1c(C(=O)Nc2ccccc2)nnn1-c1ccccc1,i
Nc1ncnc2c1ncn2CCNCCc1ccccc1,i
O=C(O)c1cc(-c2ccncc2)nc2ccc(S(=O)(=O)N3CCOCC3)cc12,i

As a working copy, part of the list above:
smiles,CHT PAM
CCC(=O)N1CCc2cc(S(=O)(=O)NCCC(=O)NCc3ccc(F)cc3)ccc21,i
O=C(CSc1nccc(=O)[nH]1)N1CCc2ccccc2C1,i
CN(C)S(=O)(=O)c1cc(C(=O)NCc2ccccc2)c(Cl)cc1Cl,i
Cc1nn2c(=O)cc(CSCC(=O)Nc3ccccc3F)nc2s1,i
CCOC(=O)C1(CC2CC2)CCN(Cc2cnc(N(C)C)s2)CC1,i
CCOC(=O)c1c(C2CC2)csc1NC(=O)COC(=O)c1cc(OC)c(OC)cc1[N+](=O)[O-],i
Cn1c(=O)c2[nH]c(CN(Cc3ccccc3)Cc3ccccc3)nc2n(C)c1=O,i
Cc1ccccc1CNC(=O)Cc1cccs1,i
CC(C)c1nnc(NC(=O)CCC(=O)Nc2ccc(Cl)cc2)s1,i
O=C(O)COc1ccccc1/C=N/NC(=O)CN1CCN(S(=O)(=O)c2ccc(Br)cc2)CC1,i
COc1cc(/C=N/n2cnnc2)ccc1OCCSc1ccc(C)cc1,i
O=C(CC1SC(N2CCCCC2)=NC1=O)Nc1cccc(C(=O)Nc2ncccc2O)c1 (centres undefined),i
O=C(Cn1c(NCCO)nc2ccccc21)NCCc1ccc(F)cc1,i
Cc1ccc(OCC(=O)N/N=C/c2cccn2C)cc1,i
O=C(NCCc1c[nH]c2ccccc12)Nc1ccccc1,i
CCCCOc1c(C(=O)Nc2ccccc2)nnn1-c1ccccc1,i
Nc1ncnc2c1ncn2CCNCCc1ccccc1,i

Going on with the list.
smiles,CHT PAM
O=C(Nc1ccccc1N1CCOCC1)c1cccc(Oc2ccccc2)c1,i
O=C(Nc1ccc(-c2cscn2)cc1)C1CCCN(Cc2ccccc2)C1 (centres undefined),i
O=C(OCC(=O)c1c[nH]c2ccccc12)c1cccc(O)c1,i
CCc1ccc(N2CC(C(=O)OC)CC2=O)cc1 (centres undefined),i
COc1ccc2cc(CCN3C(=O)c4ccccc4C3=O)c(=O)[nH]c2c1,i
CC(=O)c1cccc(NC(=O)COC(=O)COc2c(Cl)cc(Cl)c3ccc(C)nc23)c1,i
Cc1nc2cc3ccccc3cc2c(=O)[nH]1,i
COc1cccc(COC(=O)CSCC(=O)Nc2cccc(C)c2)c1OC,i
O=C(CCCCCN1C(=O)c2ccccc2C1=O)NCc1ccco1,i
CCCCN1C(=O)CC(Nc2ccc(CC)cc2)C1=O (centres undefined),i
CS(=O)(=O)N1N=C(c2cccs2)CC1c1ccco1 (centres undefined),i
CCOC(=O)c1sc(-c2ccc(F)cc2)cc1N,i
O=C(Nc1cccc(NC(=O)c2cccs2)c1)c1ccc2c(c1)OCCO2,i
CCOC(=O)N1CCC(N2C(=O)c3ccc(C(=O)O)cc3C2=O)CC1,i
CC(OC(=O)CN(C)S(=O)(=O)c1ccc(Cl)cc1)C(=O)Nc1cccc(Cl)c1 (centres undefined),i
COc1ccc2c(c1OC)CCC2=O,i
Cc1ccc(C(C)C)c(OCC(=O)OCC(=O)NC2CCS(=O)(=O)C2)c1 (centres undefined),i
COc1ccc(CNC(=O)C2=CC(c3ccc(OC)cc3)=NS(=O)(=O)N2C)cc1,i
CCOC(=O)C1C(c2ccccc2)C(C(=O)OCC)C1c1ccccc1 (centres undefined),i
CC(NC(=O)c1cc2sccc2n1C)c1ccc2c(c1)OCCO2 (centres undefined),i
COc1ccccc1NS(=O)(=O)c1cccc(C(=O)N/N=C/c2ccc(C)o2)c1,i
CCCn1nnc(NC(=O)c2cccc(OCC(C)C)c2)n1,i
COC(=O)c1cc(OC)c(OC)cc1NC(=O)c1ccccc1,i
O=C(Nc1ccc(N2CCN(C(=O)c3ccc(Cl)cc3)CC2)cc1)c1cccs1,i
Cc1ccc(C(=O)CSc2nnc3c4ccccc4nc(C(C)(C)C)n23)cc1,i
CCNc1nc2nonc2nc1NCC,i
CC(Oc1ccc(F)cc1)C(=O)Nc1ccc2ccccc2c1 (centres undefined),i
CCCn1c(NC(=O)c2ccccc2Br)nc2ccccc21,i
Cc1ccc(SCc2cc(=O)n3ccsc3n2)c(C)c1,i
COc1ccc(Br)cc1/C=c1\sc2nc(-c3ccco3)nn2c1=O,i
Cc1nc(/C=C\C(=O)O)c2cc(C)oc2n1,i
COC(=O)c1ccc(S(=O)(=O)NCCSc2nnc3c4ccccc4n(C)c3n2)cc1,i
CCOc1ccccc1CN1CCC(O)CC1,i
O=C1N=c2ccccc2=C1c1sc(=S)n(NC(=O)c2ccccc2)c1O,i
CCO/C=C1/C(=O)N(C)C(=O)c2cc(OC)ccc21,i
Cc1ccc(NS(=O)(=O)c2c(C(=O)N3CCOCC3)c(C)n(C)c2C)cc1,i
CC(CCCC(C)(C)O)NC(=O)c1ccc(OC2CCN(C(=O)C3CC3)CC2)cc1 (centres undefined),i
COc1cc(/C=N/NC(=O)c2c(-c3ccccc3)noc2C)cc(OC)c1OC,i
O=C(CCn1cnc2ccccc2c1=O)Nc1nc2c(s1)CCCC2,i
CCc1nnc(NC(=O)CCC(=O)N2CCN(c3cc(C)ccc3C)CC2)s1,i
Cc1ccc(C(=O)Nc2ccccc2C(=O)O)cc1S(=O)(=O)Nc1ccc(Br)cc1,i
CC1CC(C)CN(S(=O)(=O)N2CCC(C(=O)NCCC3=CCCCC3)CC2)C1 (centres undefined),i
